# Compound activity (PubChem BioAssay)
# TRPML1 inh – blocks the human TRPML1 channel; Q9GZU1; TRPML1-inducible cells, Ca2+ dye fluorescence, FDSS; active compounds read low; inhibition of EC80 agonist-evoked calcium signal; activity change, negative = inhibition, % (test concentration not listed); hit rate 0.02% among 390,000; AID 624415; in the data active means activity change below about -50%; inconclusive means about -30% to -50%; inactive means above about -30%;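 note: stimulus is agonist 54-4 at its EC80 concentration; % is set by controls: 0 for no effect and ±100 for the full control effect; compound concentration not given in the record; the text of the record puts the active cut at -80%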
# Target sequence (Q9GZU1 whole entry, looked up): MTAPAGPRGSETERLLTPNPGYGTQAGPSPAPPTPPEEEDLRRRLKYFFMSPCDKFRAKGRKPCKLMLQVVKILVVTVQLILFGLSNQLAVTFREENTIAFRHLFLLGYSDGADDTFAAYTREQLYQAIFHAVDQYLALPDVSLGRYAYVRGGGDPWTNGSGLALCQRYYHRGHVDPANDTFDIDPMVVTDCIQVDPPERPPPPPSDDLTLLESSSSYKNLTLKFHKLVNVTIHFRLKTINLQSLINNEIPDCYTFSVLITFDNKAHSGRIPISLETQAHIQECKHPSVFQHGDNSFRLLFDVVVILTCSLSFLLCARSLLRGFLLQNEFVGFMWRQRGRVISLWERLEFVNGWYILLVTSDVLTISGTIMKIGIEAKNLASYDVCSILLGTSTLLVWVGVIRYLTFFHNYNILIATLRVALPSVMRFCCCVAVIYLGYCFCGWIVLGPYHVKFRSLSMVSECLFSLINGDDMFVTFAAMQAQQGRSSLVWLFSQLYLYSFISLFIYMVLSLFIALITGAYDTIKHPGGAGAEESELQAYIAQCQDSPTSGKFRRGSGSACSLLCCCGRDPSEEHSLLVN
#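 Tet-induced TRPML1-DL cells loaded with Ca8 no-wash calcium dye were read kinetically on FDSS. Compound addition was followed by EC80 agonist 54-4 (4 uM final); inhibition was read over 110 s.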
# Six1-Eya2 inh – blocks human Six1 binding to Eya2; Q15475+O00167; AlphaScreen GST-Six1/His-Eya2 binding, biochemical; active compounds read low; control for the full effect not named in the record; activity change, % (test concentration not listed); hit rate 0.56% among 360,000; in the data active = activity change below about -65%; inconclusive = about -30% to -65%; inactive = above about -30%; note: % is set by controls: 0 for no effect and ±100 for the full control effect
#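 AlphaScreen luminescence read after one hour at 37 °C in darkness. Pin-transferred compounds met GST-Six1 and His-Eya2 protein (5X stock 250 nM/500 nM) plus glutathione donor and Ni-chelate acceptor beads (5X, 50 ug/mL).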
# CtBP-E1A inh – blocks the CtBP interaction with E1A; AlphaScreen GST-E1A/His-CtBP binding, 1536-well; active compounds read low; control for the full effect not named in the record; hit rate 0.49% among 340,000; activity change, % (test concentration not listed); in the data active means activity change below about -65%; inconclusive means about -30% to -65%; inactive means above about -30%; note: % is set by controls: 0 for no effect and ±100 for the full control effect
#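 In 5 uL wells, 23 nL compound meets equimolar GST-E1A and His-CtBP (5X stock 125 nM each) for 2 h, 37 °C. Beads (5X, 50 ug/mL) then 1 h, 37 °C, dark.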
# TRPML1 ag – activates the human TRPML1 channel | Q9GZU1 | TRPML1-expressing cells, Ca2+ dye fluorescence, FDSS; host cell line not named in the record; reference of the full effect not given here | activation, % (concentration not given with the values) | hit rate 0.12% among 410,000 | AID 624414; in the data active = activation above about 50%; inconclusive = about 30% to 50%; inactive = below about 30%; note: 0% is about no effect; the text of the record puts the active cut at 80%
#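 Kinetic FDSS Ca2+ read in Tet-induced TRPML1-DL cells (ABD Ca8 dye plus quencher, 45-90 min RT loading): baseline, then compound, then 110 s agonist window; EC80 agonist 54-4 at 4uM final added afterwards for a 110 s antagonist window.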
# D2 potentiator – human D2 receptor positive allosteric modulation; P14416; hit rate 0.23% among 360,000; potentiation, % (concentration not given with the values); DiscoveRx D2 beta-arrestin cells, luminescence, 90 min; 100% = 57 uM dopamine signal; active = potentiation of 50% or more; inconclusive = 30% to 50%; inactive = 30% or less;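 note: compound concentration not given in the record; tested on top of an EC20 dose of dopamine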
# Target sequence (P14416 whole entry, looked up): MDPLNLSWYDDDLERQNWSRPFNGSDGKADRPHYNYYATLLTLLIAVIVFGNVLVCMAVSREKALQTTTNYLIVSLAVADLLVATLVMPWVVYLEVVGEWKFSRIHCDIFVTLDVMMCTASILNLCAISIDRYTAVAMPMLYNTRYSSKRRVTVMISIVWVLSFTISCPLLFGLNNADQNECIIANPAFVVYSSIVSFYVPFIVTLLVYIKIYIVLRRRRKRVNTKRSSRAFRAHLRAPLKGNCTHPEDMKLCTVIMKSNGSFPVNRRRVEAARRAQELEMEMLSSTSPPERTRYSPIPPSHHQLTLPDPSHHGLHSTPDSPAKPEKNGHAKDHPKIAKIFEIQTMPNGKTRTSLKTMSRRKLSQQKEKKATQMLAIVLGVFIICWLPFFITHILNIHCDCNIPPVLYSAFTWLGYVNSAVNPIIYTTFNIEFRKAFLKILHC
#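 D2 cells co-treated with compound plus 50 nM dopamine (EC20) for 90 min at 37 deg C to detect potentiation. Beta-arrestin recruitment was read as enzyme-fragment luminescence after 1 h at ambient temperature. Full response was set by 57 uM dopamine.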
# TRPV1 PAM – human TRPV1 potentiation | AID 540277 | Q8NER1 | potentiation, % at 8.33 µM | TRPV1-expressing cells, Fluo-8 calcium influx, capsaicin EC20 potentiation; host cell line not named in the record; control for the full effect not named in the record | hit rate 0.02% among 320,000; active means potentiation above 80%; inconclusive means 30% to 80%; inactive means below 30%; note: 0% is about no effect
#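 Fluo-8 calcium influx in TRPV1-expressing cells, kinetic read (ex 480/em 520 nm). Compound added and read 3 min for agonist activity, followed by capsaicin at EC20 final and 2 min further read for enhancement.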
# * = called active by the depositor; ? = inconclusive; nt = not tested or not shown; & = joins results of further samples.
1) CN(CC(=O)Nc1ccc(F)cc1)CC(=O)Nc1ccc(Cl)c(S(=O)(=O)N2CCOCC2)c1
2) CS(=O)(=O)N(CC(=O)Nc1c(F)cccc1F)c1ccc(C23CC4CC(CC(C4)C2)C3)cc1
3) CCCCCc1ccc(-c2cn(CCCOCc3ccccc3)nn2)cc1
4) CCN(CC)C(=O)C1=C(C)N(Cc2ccccc2)C(=O)C(CC(=O)NC2CCCC2)C1 (configuration not stated)
5) CCN1CCN(C(=O)c2cc3cc([N+](=O)[O-])ccc3oc2=O)CC1
6) CCN(CC)CCN(Cc1cc2cc3c(cc2[nH]c1=O)OCCO3)C(=S)NCC1CCCO1 (configuration not stated)
7) COc1ccc(C(=O)/C=C/Nc2cccc(C)n2)cc1OC
8) COc1ccc(S(=O)(=O)Nc2ccc(C)cc2)cc1N(C)S(=O)(=O)c1ccc(Cl)cc1
Compound	1	2	3	4	5	6	7	8
TRPML1 inh	-2.9	11.0	-2.9	85.3	29.3	-12.0	-0.1	-11.2
Six1-Eya2 inh	5.3	-3.2	75.1	26.5	-10.8	7.1	-10.0	-2.6
CtBP-E1A inh	-4.9	2.1	68.5	4.2	6.7	8.9	-8.8	1.0
TRPML1 ag	0.4	0.8	1.3&1.9	-0.2	0.6	-0.3	0.2	11.9
D2 potentiator	-1.9	-1.6	-3.3	4.1	-6.6	-4.6	-5.7	-2.3
TRPV1 PAM	-19.1	2.0	-4.3	nt	-1.7	0.3	5.2	-12.2

9) Cc1ccc(NC(=O)COc2ccc(Br)cc2CO)cc1
10) O=C(COC(=O)C1CC1)Nc1ccc(S(=O)(=O)N2CCOCC2)cc1
11) Cc1ccc(CN2CCN(Cc3cn(C)nc3-c3ccccc3)CC2CCO)o1 (configuration not stated)
12) Cc1ccc(NC(=O)CNC2CCS(=O)(=O)C2)cc1C (configuration not stated)
13) Cc1cc(C)c2c(n1)sc1c(N3CCN(C)CC3)ncnc12
14) CCN1C(=O)[C@H]2[C@H]3CN=C(SCc4ccccc4)N3[C@@](Cc3ccccc3)(C(=O)OC)[C@H]2C1=O
15) CC(C)OC(=O)CC(=O)CSc1nc2c(cc1C#N)CCCC2
16) N#C/C(=C\c1ccc[nH]1)C(=O)c1ccccc1
Compound	9	10	11	12	13	14	15	16
TRPML1 inh	-14.3	-3.7	11.4	1.8	-0.6	60.2	-0.7	-4.0
Six1-Eya2 inh	16.4	9.4	8.9	3.0	2.8	-1.8	0.3	5.2
CtBP-E1A inh	44.1	5.3	6.4	2.3	-2.3	-22.4	3.7	-0.8
TRPML1 ag	-0.1	0.1	-0.8	0.3	2.4	-0.5	-0.1	2.5
D2 potentiator	-20.3	-22.6	-6.8	7.2	-6.3	-7.2	6.0	-4.9
TRPV1 PAM	-9.7	nt	0.6	20.1	3.4	nt	-12.5	-7.8

# Looked up by structure from the entries so far (four):
9) Cc1ccc(NC(=O)COc2ccc(Br)cc2CO)cc1
12) Cc1ccc(NC(=O)CNC2CCS(=O)(=O)C2)cc1C (configuration not stated)
14) CCN1C(=O)[C@H]2[C@H]3CN=C(SCc4ccccc4)N3[C@@](Cc3ccccc3)(C(=O)OC)[C@H]2C1=O
15) CC(C)OC(=O)CC(=O)CSc1nc2c(cc1C#N)CCCC2
Compound	9	12	14	15
TRPML1 inh	-14.3	1.8	60.2	-0.7
Six1-Eya2 inh	16.4	3.0	-1.8	0.3
CtBP-E1A inh	44.1	2.3	-22.4	3.7
TRPML1 ag	-0.1	0.3	-0.5	-0.1
D2 potentiator	-20.3	7.2	-7.2	6.0
TRPV1 PAM	-9.7	20.1	nt	-12.5

# Continued:
17) CCN(c1ccccc1)c1cc(C)nc2nc(C)nn12
18) Cn1c(=O)c2c(nc(SCC(=O)NCc3ccco3)n2C)n(C)c1=O
19) CCN(CC)C(=O)C1CCCN(C(=O)Nc2ccccc2)C1 (configuration not stated)
20) CCOc1ccc(C(NC(C)=O)c2ccc(OC)c(OC)c2)cc1 (configuration not stated)
21) COc1ccc(-c2csc(-c3cc4ccccc4oc3=N)n2)cc1
22) CCOc1ccc(-n2c(COc3ccc(C)cc3)nnc2SCC(N)=O)cc1
23) COc1ccc(C(=O)Nc2ccc(S(=O)(=O)N3CCN(C)CC3)cc2)cc1
24) COc1cccc(CNC(=O)C2CC(=O)N(C3CCCCCCC3)C2)c1 (configuration not stated)
Compound	17	18	19	20	21	22	23	24
TRPML1 inh	-8.2	-9.0	-7.4	4.4	-6.3	-3.9	-10.3	-14.3
Six1-Eya2 inh	4.7	-7.1	3.8	-1.4	58.7	-2.4	?	5.5
CtBP-E1A inh	9.7	-2.9	1.4	3.2	24.3	-0.8	?	0.4
TRPML1 ag	1.8	-0.1	0.9	0.0	1.1	0.6	-0.8	-0.6
D2 potentiator	-5.3	-3.2	-2.2	-2.1	-2.3	-13.8	-4.6	-6.0
TRPV1 PAM	11.5	9.1	0.2	9.1	3.1	4.3	nt	-4.3

25) Cn1c(=O)c2[nH]c(CCCCCCCc3nc4ccccc4[nH]3)nc2n(C)c1=O
26) O=C(NCc1ccco1)c1ccc(C(F)(F)F)cc1
27) Cc1cccc(C)c1OCCOCCN1CCN(C)CC1
28) CC1CCN(C(=O)CSc2ccc(-c3ccccc3)nn2)CC1
29) CCOC(=O)c1c(C)n(S(=O)(=O)c2ccc(C)cc2)c2ccc(O)c(C(=O)O)c12
30) Cc1ccc(CC(=O)CCc2ccccc2)cc1
31) C=CCN1C(c2cccc(C(F)(F)F)c2)=CS/C1=C(/C#N)c1nnc(N2CCOCC2)n1-c1ccccc1
32) O=C(CCCN1C(=O)[C@H]2CC=CC[C@H]2C1=O)NCc1nc(-c2ccccc2)no1
Compound	25	26	27	28	29	30	31	32
TRPML1 inh	3.7	-4.9	0.3&1.0	21.6	62.0	-2.5	38.7	-12.4
Six1-Eya2 inh	-19.3	-4.4	6.2&19.7	-1.2	11.0	45.7	-7.0	1.3
CtBP-E1A inh	-6.6	6.0	-3.9&35.9	6.5	1.2	54.7	-5.9	0.7
TRPML1 ag	2.1	-0.2	0.4&-0.7	-0.2	0.2	-0.4	12.6	0.8
D2 potentiator	-20.0	1.4	-10.6&-11.4	-1.3	-5.5	-8.0	11.0	-2.9
TRPV1 PAM	nt	3.4	4.9	-21.1	-2.4	-38.4	3.2	-9.6

33) CCN(CC)c1ncnc2c1sc1nc(C)cc(C)c12
34) CCOC(=O)CC(=O)CSc1nc2c(sc(=S)n2-c2ccccc2)c(=O)[nH]1
35) CCN1CCN(S(=O)(=O)c2ccc(Cl)c(C(=O)N(C)C(c3ccccc3)c3ccccc3)c2)CC1
36) Cc1cccc(OCC(O)Cn2c(=N)n(CCN3CCCCC3)c3ccccc32)c1 (configuration not stated)
37) CCOc1ccc(N(CC(=O)NCc2ccccc2)S(C)(=O)=O)cc1
38) COc1cccc(COC(=O)C2CCN(S(=O)(=O)c3cccs3)CC2)c1OC
39) O=C(CC1C(=O)NCCN1C/C=C/c1ccccc1)NCCc1cnccn1 (configuration not stated)
40) CCCNC(=O)C1(C)CCCN(C(=O)c2cccc(OC(C)=O)c2C)C1 (configuration not stated)
Compound	33	34	35	36	37	38	39	40
TRPML1 inh	-19.1	48.5	-1.3	12.1&28.7	10.9	-3.4	-4.6	5.7
Six1-Eya2 inh	-8.3	-0.5	-8.2	-1.9	1.0	8.3	3.4	3.2
CtBP-E1A inh	-19.4	5.2	-13.9	-14.2	14.3	-2.3	-1.9	3.6
TRPML1 ag	2.0	3.0	2.1	-0.8&0.9	-1.1	3.6	0.4	0.5
D2 potentiator	-9.4	-1.3	-10.1	-8.4	5.4	1.7	-3.2	-10.8
TRPV1 PAM	-19.1	1.7	-20.2	18.0	-5.9	18.3	-1.5	nt

41) CCc1ccc(C2NC(=O)c3ccccc3O2)cc1 (configuration not stated)
42) Cc1nnc(SCC(=O)Nc2ccc(Oc3ccccc3)cc2)n1N
43) C[C@@H]1CN([C@@H](C)CO)C(=O)c2cccc(NC(=O)C3CCCCC3)c2O[C@@H]1CN(C)Cc1ccc(Cl)c(Cl)c1
44) O=S(=O)(NCC(c1ccco1)N1CCN(c2ccc(F)cc2)CC1)c1ccc2c(c1)OCCO2 (configuration not stated)
45) COc1ccc(NC(=O)CCCNC(=O)c2ccc(Cl)cc2)cc1S(=O)(=O)N1CCOCC1
46) CCCc1nc(N)c(C#N)c(-c2cccnc2)c1CC
47) CC(C)CN1CCC(=O)NC1=S
48) O=C(Nc1ccc(F)cc1)Nc1nnc(-c2ccncc2)s1
Compound	41	42	43	44	45	46	47	48
TRPML1 inh	12.3	-1.5	-13.3	-0.8	-5.9	4.8	14.6	-1.5
Six1-Eya2 inh	-10.3	0.6	-9.1	-20.3	0.3	6.4	10.9	-0.8
CtBP-E1A inh	-3.2	4.4	-2.3	-17.8	-17.3	-1.9	-15.0	2.6
TRPML1 ag	-0.4	-1.0	-0.3	0.8	1.6	-0.7	0.5	-0.4
D2 potentiator	-6.0	-11.5	-10.1	-22.1	-2.6	-5.2	-4.9	23.7
TRPV1 PAM	11.3	-0.5	nt	4.4	nt	-4.3	nt	2.7

49) Cc1ccc(S(=O)(=O)C(C#N)c2nc3ccccc3nc2OCCO)cc1 (configuration not stated)
50) COc1ccc2nc(N3CCCC3)[nH]c2c1
51) CC1Sc2ccc(C(=O)O)cc2NC1=O (configuration not stated)
52) Cc1csc(NC(=O)Cc2ccccc2[N+](=O)[O-])n1
53) CC(C)CCn1c(=O)c2sccc2n2c(CCCC(=O)N3CCN(c4ccccn4)CC3)nnc12
54) CS(=O)(=O)c1nc(-c2ccccc2)cc(C(F)(F)F)n1
55) COc1ccc(/C=C2\C(=O)NC(=S)N2C(=O)c2ccc(F)cc2)cc1
56) O=C(CSc1nc2[nH]ncc2c(=O)[nH]1)Nc1ccc(Cl)c(Cl)c1
Compound	49	50	51	52	53	54	55	56
TRPML1 inh	-8.2	-1.3	33.6	3.6	26.7	16.4	-1.5	17.7
Six1-Eya2 inh	-3.3	0.0	-1.1	7.1	-0.1	-3.1	-0.5	-11.9
CtBP-E1A inh	nt	1.8	-9.5	10.2	3.0	4.5	18.2	-21.3
TRPML1 ag	0.5	0.3	-0.1	0.4	2.0	3.9	13.7	0.5
D2 potentiator	-8.7	-5.7	-2.9	-12.2	3.3	-49.6	-12.9	-21.5
TRPV1 PAM	9.4	7.3	4.1	18.9	3.6	12.8	3.8	12.6

57) CC1(OC(=O)CCc2ccccc2)C(=O)C=C2C=C(c3ccc(C#N)cc3)N(C3CCCCC3)C=C2C1=O (configuration not stated)
58) COc1cc(CNCCc2ccccc2)cc(Br)c1OCC(=O)Nc1ccccc1C
59) Cc1ccc(NC(=O)CN(C)CC(=O)Nc2ccc(F)c(Cl)c2)cc1
60) Cc1nc(NCCCn2ccnc2)c2ccccc2n1
61) Cc1nc2ccccn2c1C(=O)N/N=C/c1ccc(F)cc1
Compound	57	58	59	60	61
TRPML1 inh	-1.1	18.5	-15.4	-16.5	6.2
Six1-Eya2 inh	-18.4	-10.6	7.5	2.4	2.3
CtBP-E1A inh	-0.2	nt	5.2	3.2	-4.9
TRPML1 ag	-1.2	0.2	1.2	0.4	-0.1
D2 potentiator	?	-19.0	-7.8	1.7	0.5
TRPV1 PAM	?	6.2	22.2	-7.2	-21.0
